Screening results from PubChem BioAssay.
Mtb hypoxia inh: Mtb hypoxia fluorescent reporter inhibition; actives 0.1% (n = 300,000); AID 1159583; M. tuberculosis hypoxia-regulated fluorescent reporter, fluorescence; fluorescence inhibition, % (no concentration beside the values);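 active = 35 to 45% if threefold the growth effect, above 45% if 1.5-fold the growth effect; inactive = the rest, general growth blockers included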;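 note: wells of about 50 µL received 100 nL stock; 0% = vehicle wells and 100% = reference inhibitor wells; whole bacteria with a GFP reporter of the hypoxia response; strong numbers were not always called active; many hits fall short of the cut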
RN4220 kill: S. aureus RN4220 growth inhibition. OD600, 16 h. inhibition, % (test concentration not listed). actives 0.33% (n = 330,000);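 active = z-score of -3 or lower and OD600 up to 0.18 on both plates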;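 note: plate controls were untreated cells for no effect and reference antibiotic for full effect; stock transfer was 100 nL into about 80 µL; one replicate is shown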
PrP UTR inh: inhibition of PrP 5' UTR reporter expression. cell-based PrP 5' UTR mRNA reporter, plate reader. inhibition, % (concentration not given with the values). actives 0.35% (n = 340,000);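 active = every replicate at 50% or more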;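 note: 0 = median of the neutral control wells; tested in H4 reporter cells; numbers are from one replicate; inactives centre near -14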
BJeLR viability: BJeLR cell viability loss; BJeLR (HRASV12) viability, CellTiter-Glo ATP luminescence, 48 h; reference of the scale not given here; inhibition, % (test concentration not listed); actives 0.17% (n = 300,000); AID 1554;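 active = replicate mean above 50%; inconclusive = above 50% but judged a plate artefact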;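 note: 50 nL library stock added to about 25 µL; numbers are from one replicate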
Autofluor counter: compound fluorescence in toxin protease inhibitor counterscreen; compound autofluorescence counterscreen, microsphere flow cytometry; stronger effect = higher value; fluorescence intensity (concentration not given with the values); actives 3.1% (n = 360,000); AID 624483;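 active = at least 3 SD above the mean of all compounds, about 16000 in these data; inconclusive = too few beads counted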;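 note: 100 nL of 1 mM stock went into each well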
ugtP null kill: growth inhibition of S. aureus ugtP deletion strain; actives 0.54% (n = 330,000); S. aureus RN4220 ugtP deletion, OD600 growth, 16 h; some inactives read as strong as hits; growth inhibition, % (no concentration beside the values);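 active = z-score under -3 and OD600 up to 0.15 on both plates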;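 note: plate controls were untreated wells for no effect and antibiotic for full effect; wells of about 80 µL received 100 nL stock; the first replicate is given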
Mtb hypoxia inh growth: recorded beside Mtb hypoxia inh, whose call it bears; growth inhibition, %; measured here: M. tuberculosis growth (absorbance);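 0% = vehicle and 100% = reference antibiotic; read after six days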
Starred values were filed as active, the others as inactive; ? = inconclusive; nt = no result given.

Start of the data: the first 5 records as a preview:
[1] CSc1ccc(Cl)c(C(=O)OCC(=O)N2CCNC2=O)c1
[2] O=C(NCCc1ccncc1)Nc1ccccc1
[3] Nc1nc(CN2CCN(Cc3ccccc3)CC2)nc(Nc2ccccc2)n1
[4] O=c1c2oc3ccccc3c2[nH]c(=S)n1-c1ccc(F)cc1
[5] CCCNCc1cc(OC)c(OCc2ccccc2)cc1Br
compound no.,1,2,3,4,5
Mtb hypoxia inh,1,nt,-21,12,5
Mtb hypoxia inh growth,3,nt,-3,5,-9
RN4220 kill,-0.1,7.6,-5.2,1.8,2.0
PrP UTR inh,-32,-29,8,-9,-12
BJeLR viability,nt,-5,1,5,15
Autofluor counter,?,3509,19782*,3551,5333
ugtP null kill,2,-6,-4,6,6

The whole of this part, repeating the preview:
[1] CSc1ccc(Cl)c(C(=O)OCC(=O)N2CCNC2=O)c1
[2] O=C(NCCc1ccncc1)Nc1ccccc1
[3] Nc1nc(CN2CCN(Cc3ccccc3)CC2)nc(Nc2ccccc2)n1
[4] O=c1c2oc3ccccc3c2[nH]c(=S)n1-c1ccc(F)cc1
[5] CCCNCc1cc(OC)c(OCc2ccccc2)cc1Br
[6] Cc1nn(Cc2ccccc2Cl)c(Cl)c1/C=C/C(=O)OCC(=O)NC(N)=O
[7] O=C(c1ccccc1)N1CC(COc2ccccc2)OC(c2cccnc2)O1 (stereo unspecified)
[8] O=C(Nc1nc(-c2cccs2)c(C(=O)C(F)(F)F)s1)c1ccccc1
compound no.,1,2,3,4,5,6,7,8
Mtb hypoxia inh,1,nt,-21,12,5,nt,nt,3
Mtb hypoxia inh growth,3,nt,-3,5,-9,nt,nt,6
RN4220 kill,-0.1,7.6,-5.2,1.8,2.0,3.8,4.1,88*
PrP UTR inh,-32,-29,8,-9,-12,-28,-28,-6
BJeLR viability,nt,-5,1,5,15,4,6,13
Autofluor counter,?,3509,19782*,3551,5333,2839,4356,5928
ugtP null kill,2,-6,-4,6,6,-2,6,89

[9] O=C(NCc1ccccn1)Nc1ccc(Br)cc1
[10] COc1ccc(Br)cc1Cn1nnc(C(=O)Nc2ccc3c(c2)OCCO3)c1N
[11] O=C(CNC(=O)c1cccs1)N/N=C/c1c[nH]c2ccccc12
[12] COc1ccccc1-c1c(C)c(C)nc(N)c1C#N
[13] CC(=O)Oc1c2occc2cc2ccc(=O)oc12
[14] C=CCSC1=NN2CCS(=O)(=O)N=C2S1
[15] Cc1oc(-c2ccccc2F)nc1CS(=O)(=O)CC(=O)NCCCN1CCN(C)CC1
[16] COCCN(CC(=O)Nc1cccc(C)c1C)C(=O)Cc1cccs1
compound no.,9,10,11,12,13,14,15,16
Mtb hypoxia inh,1,11,nt,10,3,16,1,5
Mtb hypoxia inh growth,12,8,nt,8,-1,4,-4,3
RN4220 kill,0.5,2.0,nt,3.5,6.8,3.6,2.4,12
PrP UTR inh,-11,-30,-13,-35,3,-12,-11,nt
BJeLR viability,-12,-2,1,2,4,2,1,nt
Autofluor counter,5135,4341,4797,8746,2418,5111,5760,6277
ugtP null kill,4,0,nt,-2,3,4,0,-2

[17] C=CCO/N=C(/C)c1c(O)c(CC)c(-c2ccccc2)n(-c2ccccc2)c1=O
[18] CCC(C(=O)NC1CCCC1)N(C(=O)c1snc(C(N)=O)c1N)c1ccc(C)cc1C (stereo unspecified)
[19] CC1(c2ccccc2)NC(=S)N2C1NC(=S)N2c1ccccc1 (stereo unspecified)
[20] Cc1[nH]nc(Nc2ccccc2)c1[N+](=O)[O-]
[21] CNC(=O)CN(c1ccc(Oc2ccccc2)cc1)S(=O)(=O)c1ccc(C)cc1
[22] CC(C)[C@H](NC(=O)N1c2ccccc2NC(=O)[C@@H]1C(C)C)C(=O)N[C@H](C(=O)O)c1ccccc1
[23] COC(=O)CSc1nc2sc(C)c(C)c2c(=O)n1C
[24] CCOC(=O)c1cc(NC(=O)COc2ccc([N+](=O)[O-])cc2)cc(C(=O)OCC)c1
compound no.,17,18,19,20,21,22,23,24
Mtb hypoxia inh,nt,6,3,3,10,nt,4,nt
Mtb hypoxia inh growth,nt,7,4,8,14,nt,7,nt
RN4220 kill,nt,-1.3,6.7,5.7,1.5,-0.7,6.3,nt
PrP UTR inh,0,-14,-65,-32,-1,-8,-29,-17
BJeLR viability,0,-6,8,5,5,5,-3,5
Autofluor counter,2376,3625,2445,3656,5687,4364,5650,1960
ugtP null kill,nt,2,4,-6,5,1,7,nt

[25] COc1ccc(CNc2ncnc3cc(Cl)ccc23)cc1
[26] O=C(Cn1cc(F)c(=O)[nH]c1=O)NCCO
[27] NC(=S)NN=Cc1c(OCc2ccccc2Cl)ccc2ccccc12
[28] COCCNC(=O)/C(C#N)=C/c1ccc(SC)cc1
[29] O=C(NCC1CCCN(C(=O)c2cccnc2)C1)c1ccc(-c2ccccc2)cc1 (stereo unspecified)
[30] Cn1cnc(C(=O)N2CCN(C(=O)OC(C)(C)C)CC2)c1C(=O)N1CCN(C(=O)OC(C)(C)C)CC1
[31] O=C(C=NO)NCCCN1CCOCC1
[32] CCOC(=O)c1cc2c(ccn2C)n1Cc1ccccc1C
compound no.,25,26,27,28,29,30,31,32
Mtb hypoxia inh,4,-3,6,14,-1,6,10,18
Mtb hypoxia inh growth,11,7,11,-1,20,3,1,3
RN4220 kill,0.5,4.7,6.6,9.7,8.5,-0.9,0.4,0.2
PrP UTR inh,-19,-18,nt,-41,-14,-9,nt,-19
BJeLR viability,7,-2,nt,10,1,nt,nt,-6
Autofluor counter,4469,2493,nt,4780,3348,4392,nt,8907
ugtP null kill,1,14,17,-1,-1,-9,2,29

[33] O=C(CNC(=O)c1ccccc1)N/N=C/c1ccc([N+](=O)[O-])o1
[34] O=C(Nc1cnccn1)c1cccc(C(F)(F)F)c1
[35] Brc1cc2c(cc1Br)OCCOCCOCCOCCO2
[36] COc1ccc(NC(=O)c2ccc3c(SCC(=O)O)c4c(nc3c2)CCCC4)cc1Cl
[37] CCOc1ccc(/C=N/NC(=O)c2cc(-c3ccccc3)nc3ccccc23)cc1O
[38] S=C(NCc1ccco1)NN=Cc1ccccc1Cl
[39] CC(O)Cn1nc([N+](=O)[O-])nc1N (stereo unspecified)
[40] Cc1cccc(N2C(=O)CN(Cc3cccs3)C2=S)c1
compound no.,33,34,35,36,37,38,39,40
Mtb hypoxia inh,nt,16,3,13,nt,5,9,1
Mtb hypoxia inh growth,nt,10,1,8,nt,3,9,5
RN4220 kill,nt,0.7,4.8,6.4,nt,2.6,13,8.0
PrP UTR inh,-21,-16,-9,nt,-33,nt,-36,3
BJeLR viability,-1,7,6,-27,-18,nt,3,0
Autofluor counter,2205,10975,4488,nt,4091,nt,4400,4616
ugtP null kill,nt,1,0,6,nt,6,4,11

[41] CC(OC(=O)CCc1nc2ccccc2c(=O)[nH]1)C(=O)c1ccc(Br)cc1 (stereo unspecified)
[42] O=[N+]([O-])c1ccccc1NN=Cc1ccccc1F
[43] c1ccc(Nc2cc(-c3ccccc3)nc3ncnn23)cc1
[44] CSc1ccccc1NC(=O)CN(C)C(C)C(=O)NC(=O)NC1CCCCC1 (stereo unspecified)
[45] CCOP(=O)(OCC)C(NC(=O)Nc1ccc(Cl)cc1)C(N)=O (stereo unspecified)
[46] CN(C)CCCN(C(=O)CCOc1ccccc1)c1nc2c(F)cccc2s1
[47] COc1ccccc1/C=N/NC(=O)Cn1cnc([N+](=O)[O-])n1
[48] CCc1ccccc1NC(=O)CCS(=O)(=O)c1ccc2c(c1)CCCN2C(C)=O
compound no.,41,42,43,44,45,46,47,48
Mtb hypoxia inh,7,11,4,4,12,-4,nt,0
Mtb hypoxia inh growth,3,3,1,-1,5,-5,nt,-1
RN4220 kill,5.6,9.2,5.2,-2.0,1.1,-2.4,nt,4.1
PrP UTR inh,4,nt,2,-12,-1,-29,-11,-13
BJeLR viability,-16,nt,5,-12,-4,0,1,22
Autofluor counter,8292,nt,16695*,?,2037,4616,2060,5327
ugtP null kill,-1,-9,-10,3,4,0,nt,11

[49] Cc1ccc(-c2cc(C(F)F)nc3sc4c(=O)[nH]cnc4c23)cc1
[50] Cc1cccc(-c2nnc(SCC(=O)Nc3cc(C)on3)n2C)c1
[51] Cc1ccc(C2(C)NC(=O)N(CC(=O)Nc3ccc4[nH]c(=O)[nH]c4c3)C2=O)cc1 (stereo unspecified)
[52] CCOc1ccc(CN2CCN(Cc3nc4c(s3)CCCC4)CC2CCO)cc1 (stereo unspecified)
[53] CCOc1cc2[nH]c(=O)n(CCc3ccc(OC)c(OC)c3)c(=O)c2cc1OCC
[54] CCOC(=O)C1=C(C)Nc2ncnn2C1c1cc(Br)ccc1F (stereo unspecified)
[55] O=C(NCCCN1CCCC1=O)c1ccc2c(c1)NC(=O)C(N1CCOCC1)S2 (stereo unspecified)
[56] Cc1cccc(C(=O)NC(=S)NNC(=O)COc2ccc(Cl)cc2)c1
compound no.,49,50,51,52,53,54,55,56
Mtb hypoxia inh,4,-1,-3,8,9,7,-9,11
Mtb hypoxia inh growth,6,-6,6,1,7,10,-3,8
RN4220 kill,-1.8,5.5,5.6,3.5,9.8,17,21,77
PrP UTR inh,nt,-5,1,-4,-18,7,-14,-17
BJeLR viability,nt,2,-3,-1,2,14,6,7
Autofluor counter,5384,4671,3826,2250,6907,2638,2326,5156
ugtP null kill,7,10,11,4,20,5,15,63

[57] O=C(c1ccc(C(=O)N2CCN(c3ccccc3F)CC2)nc1)N1CCN(c2ccccc2F)CC1
[58] COc1ccc(N2C(=O)N3[C@H](c4ccc(Br)cc4)[C@@H]4C(=O)N(C(C)(C)C)C(=O)[C@@H]4[C@]3(Cc3ccccc3)C2=O)cc1
[59] Cc1ccc(S(=O)(=O)N2CCN(C(=O)c3ccc4nc[nH]c4c3)CC2)cc1
[60] CCOC(=O)Nc1ccc2c(c1)N(C(=O)CCN1CCN(CCO)CC1)c1ccccc1S2
[61] COc1ccccc1N1CCN(C(=O)CCn2c(=O)[nH]c3ccccc3c2=O)CC1
[62] Cc1nn(C)c(C)c1C1C(C#N)=C(N)OC2=C1C(=O)CCC2 (stereo unspecified)
[63] CC1=NOC(=O)/C1=C\c1ccc(-c2ccccc2Br)o1
[64] O=C(NCCc1ccc(Cl)cc1)C(=O)Nc1cc2c3c(c1)CC(=O)N3CCC2
compound no.,57,58,59,60,61,62,63,64
Mtb hypoxia inh,-3,nt,4,0,4,16,16,2
Mtb hypoxia inh growth,5,nt,5,6,7,0,13,-7
RN4220 kill,0.3,nt,1.7,5.8,6.0,2.5,11,0.2
PrP UTR inh,-3,-13,-9,-16,-28,-8,-18,-9
BJeLR viability,-6,-4,3,4,-1,0,-4,9
Autofluor counter,5021,3031,5274,3451,22600*,2265,4129,5475
ugtP null kill,6,nt,2,-3,6,7,5,2

[65] COc1ccc(NC(=O)c2ccc(NC3=NC4CS(=O)(=O)CC4S3)cc2)cc1 (stereo unspecified)
[66] COc1ccc(CCNC(=O)c2cc(=O)[nH]c3ccc(Br)cc23)cc1OC
[67] COc1ccc(NC(=O)Nc2ccon2)c(OC)c1
[68] COc1cccc(NC2=NC3(CCCCC3)N=C(N)N2)c1
[69] COC(=O)CSc1nc(N2CCCCC2)c2c(c1C#N)CCCC2
[70] Cn1c(OCc2ccc3c(c2)OCO3)nc2c1c(=O)n(Cc1ccc(Cl)c(Cl)c1)c(=O)n2C
[71] COc1cccc(CN2CCNC(=O)C2CC(=O)N(C)CC2CCOCC2)c1 (stereo unspecified)
[72] Cc1cccc(NC(=S)N(CCc2nc3cc(C)c(C)cc3[nH]2)Cc2cccnc2)c1
[73] COc1ccccc1NS(=O)(=O)c1cccc(C(=O)N/N=C/c2ccccc2OCC(=O)O)c1
[74] COc1ccccc1CNC(=O)COC(=O)c1ccco1
[75] Cc1cccc(OCC(=O)Nc2ccccc2N2CCCCC2)c1
compound no.,65,66,67,68,69,70,71,72,73,74,75
Mtb hypoxia inh,-3,2,8,1,nt,nt,8,11,nt,0,25
Mtb hypoxia inh growth,6,2,8,3,nt,nt,0,-9,nt,-5,9
RN4220 kill,13,1.6,-2.2,3.3,-2.0,-1.7,2.5,2.6,nt,2.6,-0.2
PrP UTR inh,-18,-22,-17,-12,-6,-11,-1,-17,-46,-27,-28
BJeLR viability,-4,5,-2,4,8,-6,-15,11,3,nt,-8
Autofluor counter,5477,2070,2162,9893,3701,4974,6613,7944,3862,2847,9833
ugtP null kill,7,-3,-5,2,-8,-1,4,8,nt,0,-9
